From PubChem
IMPase Li cell = qHTS Assay for Identifying the Cell-Membrane Permeable IMPase Inhibitors: Potentiation with Lithium; CHO-M1 cells, IP1 TR-FRET (IP-One), carbachol + lithium; Potency, µM (highest dose often 59.4 µM), without a hit: at the highest dose activity, negative = IMPase inhibition, most hits filed as inhibitors; hit rate 0.35% among 210,000; AID 1457, 2008;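 also: IP1 builds up when IMPase is blocked and the TR-FRET signal falls; plate controls were basal vehicle for no effect and high inhibitor control for full effect; nearly all actives have a fitted effect of over 50% in size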
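Steps: plate 2000 CHO-M1 cells per well and culture 16–30 h; add compound and lithium; incubate 30 min, 37C; add d2-IP1 tracer and Eu cryptate anti-IP1 antibody in lysis buffer; read after 10 min at room temperature.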
Epigenetic reg = Quantitative High-Throughput Screen for Regulators of Epigenetic Control; Potency, µM (top dose mostly 53.9 µM), inactives show at the highest dose GFP activation, most hits filed as activators; AID 1865, 2009; hit rate 0.2% among 280,000; murine LDR cells, GFP reporter derepression, 30 h; also: % of control where 0% means no effect; nearly all actives have a fitted effect of over 60% in size
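Murine LDR cells carrying a silenced, genomically integrated CMV-driven GFP reporter were exposed to compound for 30 hours at 37 C. After PBS washes, GFP-positive cells (20–120 um objects) were counted by laser-scanning microplate cytometry.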
SMN2 splice enh = qHTS Assay for Enhancers of SMN2 Splice Variant Expression | hit rate 2.8% among 210,000 | HEK293 SMN2-luciferase splicing reporter, luminescence, 30-36 h | Potency, µM (highest dose often 46.1 µM), inactives show top-dose activity change, positive = activation, hits mostly activators; also: % of control where 0% means no effect; nearly all actives have a fitted effect of over 55% in size
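HEK293 cells carry an SMN2 minigene-luciferase reporter in which exon 7 inclusion puts luciferase in frame. Cells were seeded at 2000 cells/well, attached for 10-12 hours, then exposed to compounds for 30-36 hours at 37C before ONE-Glo luminescence.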
NPSR antagonist = qHTS Assay for Antagonists of the Neuropeptide S Receptor: cAMP Signal Transduction. CHO-NPSR cells, cAMP TR-FRET, antagonist mode. hit rate 1% among 220,000. AID 1461, 2008. Potency, µM (top dose mostly 38.3 µM), for inactives: at the top dose activity change, negative = inhibition, most hits filed as inhibitors; also: % is scaled to controls: 0 for no effect and ±100 for the full control effect; nearly all actives have a fitted effect of over 50% in size; many of its hits are not listed in these tables
Target sequence (Q6W5P4 whole entry, looked up): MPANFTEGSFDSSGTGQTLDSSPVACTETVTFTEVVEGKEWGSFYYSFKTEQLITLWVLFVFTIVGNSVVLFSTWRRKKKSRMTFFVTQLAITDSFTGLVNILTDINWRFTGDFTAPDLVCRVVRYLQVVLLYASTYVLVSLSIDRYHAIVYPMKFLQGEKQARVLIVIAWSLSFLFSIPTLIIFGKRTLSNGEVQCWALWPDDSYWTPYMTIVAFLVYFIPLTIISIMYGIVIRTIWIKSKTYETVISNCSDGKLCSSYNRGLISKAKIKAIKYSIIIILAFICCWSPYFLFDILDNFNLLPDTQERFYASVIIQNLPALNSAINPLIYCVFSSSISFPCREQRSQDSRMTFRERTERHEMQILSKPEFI
KinaseGlo FLuc = Counterscreen for Luciferase (Kinase-Glo TM) Inhibition; Luciferin 4-monooxygenase (Photuris pensylvanica), Q27757; Kinase-Glo luciferase, ATP luminescence, 8 min; Potency, µM (titrated, usually from 38.3 µM), without a hit: at the highest dose activity change, negative = inhibition, hits mostly inhibitors; hit rate 0.28% among 200,000; also: % is scaled to controls: 0 for no effect and ±100 for the full control effect; nearly all actives have a fitted effect of over 60% in size
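Kinase-Glo luciferase light output from ATP and luciferin was measured with 10 uM ATP, within the enzyme's linear range. Buffer: 50 mM imidazole pH 7.2, 50 mM KCl, 7 mM MgCl2, 0.01% Tween 20, 0.05% BSA; luminescence read after 8 min at ambient temperature.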
RECQ1 helicase = qHTS Assay for Inhibitors of RecQ-Like Dna Helicase 1 (RECQ1). ATP-dependent DNA helicase Q1 (Homo sapiens), P46063. RECQ1 DNA unwinding, red fluorescence kinetic read. Potency, µM (doses to about 57.3 µM), for the others: at the top dose activity, negative = inhibition, hits mostly inhibitors. hit rate 0.54% among 240,000;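 also: plate controls were vehicle for no effect and no enzyme for full effect; nearly all actives have a fitted effect of over 30% in size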
Target sequence (P46063 whole entry, looked up): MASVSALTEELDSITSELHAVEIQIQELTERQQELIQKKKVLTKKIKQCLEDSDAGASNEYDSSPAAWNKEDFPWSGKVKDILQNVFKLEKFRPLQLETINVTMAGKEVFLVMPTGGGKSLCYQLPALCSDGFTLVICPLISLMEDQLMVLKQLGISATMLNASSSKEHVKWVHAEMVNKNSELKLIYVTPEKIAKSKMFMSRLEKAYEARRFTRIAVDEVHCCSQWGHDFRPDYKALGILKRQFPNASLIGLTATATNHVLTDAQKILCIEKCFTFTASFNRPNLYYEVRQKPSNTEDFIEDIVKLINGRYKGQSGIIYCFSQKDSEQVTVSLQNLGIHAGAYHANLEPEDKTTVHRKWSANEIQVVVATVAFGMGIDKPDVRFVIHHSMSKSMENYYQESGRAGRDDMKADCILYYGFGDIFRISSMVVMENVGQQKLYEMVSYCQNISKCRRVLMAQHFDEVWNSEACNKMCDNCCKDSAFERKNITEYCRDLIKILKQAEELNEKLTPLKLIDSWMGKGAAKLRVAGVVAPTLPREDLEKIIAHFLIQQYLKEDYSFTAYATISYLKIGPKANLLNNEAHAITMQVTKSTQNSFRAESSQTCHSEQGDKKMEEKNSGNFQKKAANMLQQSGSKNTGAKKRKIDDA
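RECQ1T1 50 nM; forked duplex (20 bp + 30-nt ss tails) 200 nM, ATP 2 mM final; pH 8.0, 2 mM MgCl2, 2.5 ug/ml poly(dI-dC); 15 min compound preincubation; discontinuous kinetic read over 2 h at RT.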
An asterisk follows results filed as active; i = inactive; u = inconclusive; x = no result given; [ ] = remark or other dose. Calls follow the shape of the dose curve; as a rule, active = well fitted curve in the direction sought with a large enough effect; inconclusive = small, poorly fitted or top-dose-only effect, or another doubt; inactive = no such curve, though single readings can be large; an effect the other way counts as inactive or inconclusive. Potency is read from the fitted curve at half-maximal effect. Only part of the results is shown, so the mix of outcomes need not match the whole.

SMILES | IMPase Li cell | Epigenetic reg | SMN2 splice enh | NPSR antagonist | KinaseGlo FLuc | RECQ1 helicase
COc1ccc(Br)cc1/C=N/n1c(C)nnc1C | 0% | 5.0% | u | -10%[46.1 µM] | 0% | 5%
C/C(=N\NC(=O)c1ccccc1[N+](=O)[O-])c1c(O)cc(C)oc1=O | -3% | 1.0% | -24% | 9% | 2% | u
Cc1cc(N/N=C/c2ccccc2[N+](=O)[O-])nc(-n2nc(C)cc2C)n1 | x | 8.4% | x | u | x | -4%
CCOc1ccc(OCC(=O)Nc2ccccc2C(F)(F)F)cc1 | 0% | -2.3% | 11% | -5% | -2% | i
Cc1cccc(C)c1NC(=O)CSc1nnc(-c2ccco2)n1N | 2%[38.3 µM] | -0.6% | 23% | 2%[46.1 µM] | 1% | -11%
CN(C)CCCN(CCCNC(=O)/C=N/O)Cc1ccccc1 | 2% | 1.0% | 14% | 28% | 0% | -5%
CC(C)NC(=O)NC(=O)COC(=O)Cc1c(F)cccc1Cl | 1% | 2.9% | 3% | 2% | 0% | -13%
NS(=O)(=O)c1ccc(NC(=O)c2ccc3nccnc3c2)cc1 | x | 1.0% | x | 1% | x | 16%
Cc1cccc(C(=O)N2CCC(=O)N(C(COCc3ccc(Cl)cc3)Cc3ccccc3)CC2)c1 (stereo not drawn) | 11% | 0.2% | -18% | -41% | -1% | -4%
CCCCCSc1nc(O)cc(=O)[nH]1 | 14%[38.3 µM] | 0.0% | u | -4%[46.1 µM] | 0% | 2%
c1ccc(-c2nc(CSc3n[nH]c(-c4cccs4)n3)cs2)cc1 | 5%[38.3 µM] | -1.4% | -9% | -7%[46.1 µM] | -7% | -18%
Cc1cc(C)c(NC(=O)C2CCCN2CCOC(=O)c2cccc([N+](=O)[O-])c2)c(C)c1 (stereo not drawn) | 23% | 1.1% | 26% | -20% | 14% | -1%
Cc1cc([N+](=O)[O-])ccc1NC1CCCC1 | 6% | -0.9% | -51%[inhibitor] | -10% | -1% | -1%
COc1ccc(CNc2nc(NCc3ccc(OC)cc3)n(C(=O)c3ccccc3[N+](=O)[O-])n2)cc1 | 10%[38.3 µM] | 1.1% | -5% | -12%[46.1 µM] | -1% | -7%
COc1cc(OC)c(OC)cc1/C=N/n1c(C)nnc1C | -1%[38.3 µM] | 0.0% | 25% | -16%[46.1 µM] | 8% | i
CC(=O)NS(=O)(=O)c1cccnc1Nc1ccc(Cl)cc1 | 29%[38.3 µM] | 0.0% | 21% | -15%[46.1 µM] | -2% | 12%
CC1=CCCC(C)(C)C1/C=C/C(C)=N/NC(=O)c1ccncc1 (stereo not drawn) | 12% | -0.2% | 8% | -8% | 0% | i
COc1cc2c(cc1OC)-c1cc(N3CCCc4ccccc43)nc(=O)n1CC2 | 29%[38.3 µM] | -1.0% | u | -21%[46.1 µM] | 0% | 4%
COc1ccc(S(=O)(=O)N(CCN2CCOCC2)Cc2cc(OC)ccc2OC)cc1 | 16%[38.3 µM] | 0.0% | -1% | -9%[46.1 µM] | 0% | -19%
O=C(Nc1ccccc1)N1C(=O)C2(OCCO2)c2ccccc21 | 14%[38.3 µM] | 0.0% | 5% | -3%[46.1 µM] | -3% | 10%
Cc1c(C=O)c2ccccn2c1C(=O)c1ccccc1 | 25%[38.3 µM] | -1.9% | -40% | -12%[46.1 µM] | -3% | 13%
CC1Cc2ccccc2N1C(=O)CNc1ccccc1N1CCCCC1 (stereo not drawn) | 6% | 2.8% | -36%[inhibitor] | -31% | -5% | -14%
N#CC1(c2ccc(NC(=O)c3ccccc3)cc2)CCCC1 | 4%[38.3 µM] | -1.4% | 14µM* | -6%[46.1 µM] | u | -16%
CC(C)CCN1CCN(C/C=C/c2ccco2)CC1CCO (stereo not drawn) | x | 2.4% | x | -21% | x | -10%
COc1ccc2cc(C#N)c(N3CCN(Cc4nnnn4CCC(C)C)CC3)nc2c1 | 14% | -2.2% | -42%[inhibitor] | -15%[46.1 µM] | 8% | -1%

Continued:
SMILES | IMPase Li cell | Epigenetic reg | SMN2 splice enh | NPSR antagonist | KinaseGlo FLuc | RECQ1 helicase
CCOC(=O)c1cc(Br)c(=O)n2ccccc12 | u | -0.2% | 24% | u | 2% | i
CN(C)c1oc(-c2ccccc2[N+](=O)[O-])nc1C#N | x | 1.1% | x | -8% | x | -2%
CSc1nnc2c(n1)[nH]c1c(C)cccc12 | -2%[38.3 µM] | -0.7% | -32% | -21%[46.1 µM] | 3% | i
Cc1cccc(C(=O)N2CCC(=O)N(C(COCc3cccc(Cl)c3)Cc3ccccc3)CC2)c1 (stereo not drawn) | 5% | -5.7% | -23% | -52% | 0% | -17%
Cc1cc(C(F)(F)F)nc(SCc2ccc(C(=O)O)o2)n1 | -9%[38.3 µM] | 0.0% | -8% | -1%[46.1 µM] | -1% | -20%
Cc1cc(C)c(NC(=S)N2CCCC2C(=O)O)c(C)c1 (stereo not drawn) | 0% | 1.0% | -9% | 7%[46.1 µM] | -1% | -2%
O=C(O)c1cccc(-n2cccc2/C=C2/NC(=O)N(c3cccc(Cl)c3)C2=O)c1 | x | -1.7% | x | -6% | x | 32µM*
CC(=O)Nc1ccc(C(=O)CSc2ncn(-c3ccccc3)n2)cc1 | 22%[38.3 µM] | -1.0% | 7.1µM* | -17%[46.1 µM] | -3% | -6%
COc1ccc(/C=N/Nc2cc(C)nc(-n3nc(C)cc3C)n2)cc1 | 8% | 14% | -114%[inhibitor] | u | -1% | -2%
CC(C)CC(COCc1cccc(Cl)c1)N1CCN(C(=O)c2cccc(C(F)(F)F)c2)CCC1=O (stereo not drawn) | 26% | 9.7% | -36%[inhibitor] | -51% | 1% | -1%
Cc1cc(C)c(NC(=O)C2CCCN2CCOC(=O)c2ccccc2)c(C)c1 (stereo not drawn) | 8% | 8.0% | 2% | -26% | 0% | i
COc1ccccc1N1CCN(Cc2nc3ccccc3c(=O)n2CC(C)=O)CC1 | -1%[38.3 µM] | 4.0% | -6% | -12%[46.1 µM] | -2% | -7%
Cc1c(/C=N/NC(=O)c2cc(=O)[nH]c(=O)[nH]2)c2ccccn2c1C(=O)c1ccccc1 | 11%[38.3 µM] | -0.1% | -16% | -10%[46.1 µM] | -5% | i
Clc1ccccc1-c1nc(-c2ccccc2)n[nH]1 | 4%[38.3 µM] | 1.9% | u | -7%[46.1 µM] | -9% | -8%
COc1cccc(C(=O)COc2ccccc2N2C(=O)C3C4C=CC(C4)C3C2=O)c1 (stereo not drawn) | 10% | 0.0% | 7% | 6% | 1% | 4%
O=C(Nc1ccccc1Cl)c1ccccc1S(=O)(=O)c1ccccc1[N+](=O)[O-] | -4% | -1.0% | 5% | 6% | -1% | -6%
CN1CCN(C(=O)/C=C\c2ccc(Cl)cc2)CC1 | -2% | -4.8% | 9% | -3% | -1% | -2%
O=C(COn1nnc2ccc(S(=O)(=O)N3CCOCC3)cc21)Nc1c(F)c(F)c(F)c(F)c1F | 1% | -2.8% | 9% | 8% | 4% | i
Cc1sc2ncnc(Sc3nnc4sc5ccccc5n34)c2c1C | 2% | -1.0% | -9% | 11% | -2% | -8%
Cc1cc(-c2cc(-c3ccc(Cl)cc3)nc(N)c2C#N)co1 | -8%[38.3 µM] | 7.6% | 6% | -16%[46.1 µM] | -3% | -8%
CN(C)/C=N/c1nc(Sc2ccc(C(F)(F)F)cc2[N+](=O)[O-])n[nH]1 | x | 1.6% | x | -2% | x | i
COc1cc(CC(=O)O)c(C(C)=O)cc1OC | -1%[38.3 µM] | 0.0% | -1% | -1%[46.1 µM] | 0% | -4%
Cc1cccc(COC[C@H](Cc2ccccc2)N2CCN(C(=O)c3cccc(Cl)c3)CCC2=O)c1 | 11% | 1.0% | x | x | -1%[39.9 µM] | -2%
CCN(CC)CCn1c(NC(=O)c2ccc(C(F)(F)F)cc2)nc2ccccc21 | 4% | 4.4% | -8% | -32% | -1% | i
COc1ccc(N(C(C)=O)S(=O)(=O)c2cccc3cccnc23)cc1 | -2% | -1.3% | 13% | 11% | -3% | -10%

New compounds follow
SMILES | IMPase Li cell | Epigenetic reg | SMN2 splice enh | NPSR antagonist | KinaseGlo FLuc | RECQ1 helicase
O=S1(=O)C=C(Sc2nnc(-c3ccccc3)o2)c2ccccc21 | u | 1.7% | -57%[inhibitor] | u | -1% | i
CCC(C)N1CCCCC1C(=O)Nc1c(C)cc(C)cc1C (stereo not drawn) | 9% | 4.7% | 9% | 4%[46.1 µM] | -2% | 0%
Cc1ccc([N+](=O)[O-])cc1NC(=O)C(C)N1CCCCC1 (stereo not drawn) | -6% | 1.2% | -10% | 0% | 0% | -16%
COc1ccc(-c2cc3ccccc3oc2=O)cc1NC(=S)NC(=O)c1ccc2c(c1)OCCO2 | -29%[38.3 µM] | -1.2% | -15% | 7%[46.1 µM] | -1% | -29%
Cc1cc2c(cc1S(=O)(=O)N(C)c1ccccc1)NC(=O)CO2 | -6% | -1.2% | 0% | 12% | 0% | 0%
O=C(Nc1ccccc1)C1CCCCN1S(=O)(=O)c1ccccc1 (stereo not drawn) | 11% | -0.3% | -12% | -34% | 1% | i
COc1ccccc1OCc1nnc(SCC(=O)Nc2ccc(C)cc2)n1C | -18%[38.3 µM] | 5.4% | 3% | -16%[46.1 µM] | 7% | i
CN=C1S/C(=C\c2ccc(Sc3ccc(Cl)cc3)o2)C(=O)N1C | 10%[38.3 µM] | 8.4% | 26% | -16%[46.1 µM] | -2% | -8%
Cc1cc2ncc(-c3ncc(C(F)(F)F)cc3Cl)cn2n1 | -7%[38.3 µM] | -3.3% | 1.3µM* | 2%[46.1 µM] | -14% | -8%
O=C(COC(=O)CCC(=O)c1ccc(F)cc1)Nc1ccc(F)cc1F | -8% | -4.1% | -11% | 2% | 5% | 0%
CC(NC(=O)COC(=O)Cc1ccc(-c2ccccc2)cc1)c1ccccc1 (stereo not drawn) | 2% | -5.1% | u | -2% | 2% | -15%
NC(=O)C(c1ccc(Cl)cc1)c1ccc(Sc2ccccc2)nn1 (stereo not drawn) | 0%[38.3 µM] | -1.4% | -10% | -26%[46.1 µM] | -2% | -1%
C=CCNC(=O)NC(=O)CSc1nnc(C(F)(F)F)n1C | -5% | 2.9% | -6% | 21% | 0% | 21%

By substructure, the compounds so far containing a furan ring, fused or not.
SMILES | IMPase Li cell | Epigenetic reg | SMN2 splice enh | NPSR antagonist | KinaseGlo FLuc | RECQ1 helicase
Cc1cccc(C)c1NC(=O)CSc1nnc(-c2ccco2)n1N | 2%[38.3 µM] | -0.6% | 23% | 2%[46.1 µM] | 1% | -11%
CC(C)CCN1CCN(C/C=C/c2ccco2)CC1CCO (stereo not drawn) | x | 2.4% | x | -21% | x | -10%
Cc1cc(C(F)(F)F)nc(SCc2ccc(C(=O)O)o2)n1 | -9%[38.3 µM] | 0.0% | -8% | -1%[46.1 µM] | -1% | -20%
Cc1cc(-c2cc(-c3ccc(Cl)cc3)nc(N)c2C#N)co1 | -8%[38.3 µM] | 7.6% | 6% | -16%[46.1 µM] | -3% | -8%
CN=C1S/C(=C\c2ccc(Sc3ccc(Cl)cc3)o2)C(=O)N1C | 10%[38.3 µM] | 8.4% | 26% | -16%[46.1 µM] | -2% | -8%
